UUG fidelity = modulators of start codon recognition fidelity in yeast | S. cerevisiae UUG-firefly luciferase reporter, luminescence/redox ratio | activity score, % at 18.7 µM | actives 0.13% (n = 350,000);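 active = replicate mean at a twofold rise or more, about +100% in these data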;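 also: firefly luciferase made from a UUG start codon reports start codon fidelity; reporter light over untreated wells divided by growth signal over untreated wells; some hits fall short of that in this replicate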
HIV Env fusion = inhibitors of HIV Env-mediated cell fusion; AID 651610; HeLa-JRFL Env/CEM21 cell fusion, luciferase; actives 1.1% (n = 360,000); inhibition, % at 12.3 µM;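 active = mean replicate inhibition score of at least 50 and every replicate individually at or above 50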;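 also: 0% = plate neutral controls and 100% = maraviroc near 300 nM; one replicate is shown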
The depositor's hits bear a star; [ ] = another dose, or the depositor's remark. A portion of the library; rates above refer to the full screens.

SMILES	UUG fidelity	HIV Env fusion
C[C@H](CO)N1C[C@H](C)[C@@H](CN(C)C)Oc2ccc(N(C)C)cc2CC1=O	-3.3	13.4[16.7 µM]
C[C@H]1CN([C@@H](C)CO)C(=O)Cc2cc(NC(=O)Nc3cccc4ccccc34)ccc2O[C@H]1CN(C)C(=O)Nc1ccc2c(c1)OCO2	-9.7	23.2[16.7 µM]
C[C@H]1CN([C@@H](C)CO)C(=O)c2cccc(NC(=O)NC3CCCCC3)c2O[C@H]1CN(C)C(=O)Nc1ccc(C(F)(F)F)cc1	2.6	23.2[16.7 µM]
COc1ccc(S(=O)(=O)N[C@H]2CC[C@H](CCNC(=O)CN3CCOCC3)O[C@H]2CO)cc1	24.8	-7.7[16.7 µM]
C[C@H]1CCCCO[C@@H](CN(C)Cc2ccccc2)[C@@H](C)CN([C@@H](C)CO)C(=O)c2cc(NC(=O)NC3CCCCC3)ccc2O1	14.2	32.4[16.7 µM]
CCC(=O)N(C)C[C@H]1Oc2cc(-c3ccccc3C)ccc2S(=O)(=O)N([C@H](C)CO)C[C@@H]1C	11.3	30.3[16.7 µM]
C[C@H](CO)N1C[C@H](C)[C@H](CN(C)Cc2cncnc2)Oc2ncc(-c3cncnc3)cc2C1=O	-11.4	12.0[16.7 µM]
O=C(NCC[C@@H]1CC[C@H](NC(=O)C2CCCCC2)[C@@H](CO)O1)c1cnccn1	-9.5	-0.1[16.7 µM]
CC(C)NC(=O)N(C)C[C@H]1Oc2cc(-c3ccccc3F)ccc2S(=O)(=O)N([C@H](C)CO)C[C@@H]1C	11.3	2.8[16.7 µM]
O=C(Nc1ccccc1F)N[C@H]1CC[C@H](CCNS(=O)(=O)c2ccc(F)cc2)O[C@@H]1CO	17.8	-6.3[16.7 µM]
O=C(C[C@H]1CC[C@H]2[C@@H](COC[C@@H](O)CN2C(=O)C2CC2)O1)NCc1ccccc1Cl	-6.1	-3.7[16.7 µM]
C[C@H]1CN([C@@H](C)CO)C(=O)c2cccc(NS(=O)(=O)c3ccc(F)cc3)c2O[C@H]1CN(C)S(=O)(=O)c1ccccc1	-3.2	-20.9[16.7 µM]
C[C@@H]1CN([C@@H](C)CO)C(=O)c2cc(-c3cccc(F)c3)cnc2O[C@H]1CN(C)CC1CCCC1	-16.2	10.8[16.7 µM]
C[C@@H]1CCCCO[C@H](CN(C)S(=O)(=O)c2cn(C)cn2)[C@H](C)CN([C@@H](C)CO)C(=O)c2cc(NC(=O)CCCN(C)C)ccc2O1	-9.5	4.7[16.7 µM]
C[C@@H]1CCCCO[C@@H](CN(C)Cc2ccncc2)[C@@H](C)CN([C@@H](C)CO)C(=O)c2cc(NC(=O)c3ccccc3)ccc2O1	0.2	0.0[16.7 µM]
COc1cccc(NC(=O)C[C@H]2CC[C@H]3[C@@H](COc4ccc(NC(C)=O)cc4C(=O)N3C)O2)c1	16.7	-2.9[16.7 µM]
CO[C@H]1CN(C)C(=O)c2cc(NC(=O)c3ccc(F)cc3)ccc2OC[C@@H](C)N(C)C[C@H]1C	0.0	6.5[16.7 µM]
CCNC(=O)C[C@@H]1CC[C@H]2[C@@H](COc3ccc(NC(=O)c4cccc(C(F)(F)F)c4)cc3C(=O)N2C)O1	14.1	3.6[16.7 µM]
CC(C)NC(=O)NCC[C@@H]1CC[C@@H](NC(=O)CN(C)C)[C@@H](CO)O1	16.7	-6.3[16.7 µM]
CNC[C@@H]1Oc2ccc(NS(=O)(=O)c3ccc(F)cc3)cc2C(=O)N([C@@H](C)CO)C[C@H]1C	-7.8	-13.2[16.7 µM]
C[C@@H]1CCCCO[C@H](CN(C)S(=O)(=O)c2ccccc2)[C@@H](C)CN([C@H](C)CO)C(=O)c2cc(NC(=O)Nc3cccc4ccccc34)ccc2O1	-7.4	-36.3[16.7 µM]
C=CCN1C(=O)[C@]2(O[C@H](CCn3cc(CCO)nn3)[C@@H]([Si](C)(C)c3ccc(OC)cc3)[C@@H]2C)c2cc(N3C(=O)c4cccc5cccc3c45)ccc21	-6.4	69.5*[16.7 µM]
C[C@@H]1CN([C@H](C)CO)C(=O)Cc2cc(NC(=O)Nc3ccccc3)ccc2O[C@H]1CN(C)Cc1ccc(Cl)c(Cl)c1	-10.0	3.6[16.7 µM]
CCCC(=O)Nc1ccc2c(c1)OC[C@H](C)N(CCC(F)(F)F)C[C@@H](C)[C@H](OC)CN(C)C2=O	11.1	-3.6[16.7 µM]
C[C@H]1CN([C@@H](C)CO)C(=O)Cc2cc(NC(=O)C3CC3)ccc2O[C@@H]1CN(C)Cc1ccc(Oc2ccccc2)cc1	2.7	-4.7[16.7 µM]

Records listed so far marked active in HIV Env fusion:
SMILES	UUG fidelity	HIV Env fusion
C=CCN1C(=O)[C@]2(O[C@H](CCn3cc(CCO)nn3)[C@@H]([Si](C)(C)c3ccc(OC)cc3)[C@@H]2C)c2cc(N3C(=O)c4cccc5cccc3c45)ccc21	-6.4	69.5*[16.7 µM]

Entries of single compounds as entered above.
Listed for `O=C(C[C@H]1CC[C@H]2[C@@H](COC[C@@H](O)CN2C(=O)C2CC2)O1)NCc1ccccc1Cl` : UUG fidelity = -6.1; HIV Env fusion = -3.7[16.7 µM]
Listed for `C[C@H](CO)N1C[C@H](C)[C@@H](CN(C)C)Oc2ccc(N(C)C)cc2CC1=O` : UUG fidelity = -3.3; HIV Env fusion = 13.4[16.7 µM]

The main list resumes with the two entries that preceded the break.
SMILES	UUG fidelity	HIV Env fusion
CCCC(=O)Nc1ccc2c(c1)OC[C@H](C)N(CCC(F)(F)F)C[C@@H](C)[C@H](OC)CN(C)C2=O	11.1	-3.6[16.7 µM]
C[C@H]1CN([C@@H](C)CO)C(=O)Cc2cc(NC(=O)C3CC3)ccc2O[C@@H]1CN(C)Cc1ccc(Oc2ccccc2)cc1	2.7	-4.7[16.7 µM]
C[C@@H]1CCCCO[C@@H](CN(C)S(=O)(=O)c2ccc(F)cc2)[C@H](C)CN([C@@H](C)CO)C(=O)c2cc(NC(=O)CCCN(C)C)ccc2O1	22.0	8.5[16.7 µM]
Cc1ccc(S(=O)(=O)Nc2ccc3c(c2)C(=O)N([C@@H](C)CO)C[C@H](C)[C@@H](CN(C)C(=O)c2ccncc2)OCCCC[C@H](C)O3)cc1	4.4	10.1[16.7 µM]
Cc1cc(C(=O)Nc2cccc3c2O[C@@H](CN(C)Cc2ccccc2)[C@@H](C)CN([C@H](C)CO)C3=O)n(C)n1	0.2	-8.6[16.7 µM]
C[C@H]1CCCCO[C@@H](CN(C)C(=O)Nc2cccc3ccccc23)[C@@H](C)CN([C@@H](C)CO)C(=O)c2cc(NC(=O)Cc3ccccc3)ccc2O1	12.9	-35.3[16.7 µM]
C[C@@H]1CN([C@H](C)CO)S(=O)(=O)c2ccc(C3=CCCCC3)cc2O[C@H]1CN(C)C(=O)c1ccc(F)cc1	8.4	12.5[16.7 µM]
CCCC#Cc1ccc2c(c1)O[C@@H](CN(C)Cc1ccncc1)[C@H](C)CN([C@H](C)CO)S2(=O)=O	-9.3	38.6[16.7 µM]
O=C(Nc1cccc(Cl)c1)N[C@H]1CC[C@@H](CCNC(=O)C2CCC2)O[C@@H]1CO	57.2	-12.1[16.7 µM]
Cc1ccc(S(=O)(=O)N[C@@H]2C=C[C@H](CC(=O)NCc3ccccc3F)O[C@H]2CO)cc1	-2.9	-14.2[16.7 µM]
C[C@@H]1CCCCO[C@H](CN(C)CC2CCCCC2)[C@@H](C)CN([C@H](C)CO)C(=O)c2cc(NC(=O)c3ccccc3)ccc2O1	-0.5	5.7[16.7 µM]
CCCNC(=O)N(C)C[C@@H]1Oc2cc(C3=CCCC3)ccc2S(=O)(=O)N([C@H](C)CO)C[C@H]1C	-1.2	4.5[16.7 µM]
COc1ccc(S(=O)(=O)N(C)C[C@@H]2Oc3ccc(NC(=O)CCN4CCOCC4)cc3CC(=O)N([C@@H](C)CO)C[C@H]2C)cc1	8.2	2.2[16.7 µM]
CO[C@@H]1CN(C)C(=O)c2cc(NC(=O)C3CC3)ccc2OC[C@H](C)N(C(=O)Cc2ccccn2)C[C@@H]1C	11.5	26.2[16.7 µM]
C[C@@H]1CN([C@H](C)CO)C(=O)c2cc(/C=C/c3ccccc3)cnc2O[C@@H]1CN(C)C(=O)C1CCC1	1.9	-9.3[16.7 µM]
C[C@H](NC(=O)C[C@@H]1CC[C@@H](NC(=O)C2CCOCC2)[C@@H](CO)O1)c1ccccc1	-21.3	15.3[16.7 µM]
CCCc1cn(CC[C@@H]2CC[C@@H](NC(=O)C3CCOCC3)[C@@H](CO)O2)nn1	-10.7	-31.8[16.7 µM]
O=C(NCC[C@H]1CC[C@@H](NC(=O)c2ccccc2F)[C@H](CO)O1)c1cnccn1	-12.0	16.7[16.7 µM]
CCOC(=O)C1=CC[C@@H](c2ccccc2)[C@@H]1C(=O)c1ccc(OC)cc1	13.8	5.1[16.7 µM]
COc1ccc(CN(C)C[C@H]2OCCCC[C@H](C)Oc3ccc(NC(=O)Nc4ccccc4)cc3C(=O)N([C@@H](C)CO)C[C@H]2C)cc1	18.3	-25.7[16.7 µM]
O=C(Nc1ccc2c(c1)[C@H]1C[C@@H](CC(=O)N3CCOCC3)O[C@@H](CO)[C@H]1O2)c1ccc2c(c1)OCO2	-5.1	10.5[16.7 µM]
CCCN(C)C[C@H]1Oc2ncc(-c3ccccc3OC)cc2C(=O)N([C@@H](C)CO)C[C@@H]1C	1.0	9.8[16.7 µM]
C[C@H]1CN([C@@H](C)CO)C(=O)Cc2cc(NS(=O)(=O)c3ccc(F)cc3)ccc2O[C@@H]1CN(C)Cc1ccc2c(c1)OCO2	-2.2	-8.6[16.7 µM]
O=C(C[C@@H]1CC[C@H](NC(=O)c2ccncc2)[C@@H](CO)O1)NCCc1ccncc1	7.3	-5.8[16.7 µM]
CN(C)C(=O)C[C@@H]1C=C[C@@H](NS(=O)(=O)c2ccccc2)[C@H](CO)O1	1.6	14.6[16.7 µM]
C[C@@H]1CN([C@@H](C)CO)C(=O)Cc2cc(N(C)C)ccc2O[C@@H]1CN(C)Cc1ccc2c(c1)OCO2	-15.7	11.9[16.7 µM]
CC(C)CC#Cc1cnc2c(c1)C(=O)N([C@H](C)CO)C[C@H](C)[C@H](CN(C)C(=O)C1CCOCC1)O2	-8.2	-11.9[16.7 µM]
Other compounds
SMILES	UUG fidelity	HIV Env fusion
O=C(C[C@H]1C[C@@H]2c3cc(NS(=O)(=O)c4ccc(F)cc4)ccc3O[C@@H]2[C@H](CO)O1)NCC1CC1	-12.6	11.5[16.7 µM]
C[C@@H]1CCCCO[C@@H](CN(C)Cc2ccc(Cl)c(Cl)c2)[C@@H](C)CN([C@H](C)CO)C(=O)c2cc(NC(=O)Nc3ccc4c(c3)OCO4)ccc2O1	-14.9	-20.3[16.7 µM]
CNC[C@@H]1OCCCC[C@@H](C)Oc2ccc(NC(=O)Nc3ccc(C(F)(F)F)cc3)cc2C(=O)N([C@@H](C)CO)C[C@@H]1C	18.1	-13.6[16.7 µM]
C[C@@H]1CCCCO[C@@H](CN(C)S(=O)(=O)c2ccc(F)cc2)[C@H](C)CN([C@@H](C)CO)C(=O)c2cc(NC(=O)CCC(F)(F)F)ccc2O1	6.6	-49.3[16.7 µM]
COCC(=O)N(C)C[C@@H]1Oc2ncc(-c3ccccc3OC)cc2C(=O)N([C@H](C)CO)C[C@H]1C	15.0	-39.5[16.7 µM]
C/C=C/c1cnc2c(c1)C(=O)N([C@@H](C)CO)C[C@H](C)[C@H](CN(C)C(=O)Cc1ccccc1)O2	-0.7	22.7[16.7 µM]
C[C@@H]1CN([C@@H](C)CO)C(=O)c2cc(N(C)C)ccc2O[C@H]1CN(C)CC1CCCCC1	-4.4	14.2[16.7 µM]
C[C@@H]1CN([C@@H](C)CO)C(=O)c2cc(NC(=O)NC3CCCCC3)ccc2O[C@H]1CN(C)Cc1ccccc1	3.0	1.5[16.7 µM]
O=C(C[C@H]1C=C[C@@H](NC(=O)c2cccc(F)c2)[C@@H](CO)O1)NCc1ccccc1	-0.8	10.1[16.7 µM]
C[C@H](CO)N1C[C@H](C)[C@@H](CN(C)Cc2ccc(Cl)c(Cl)c2)OCCCC[C@H](C)Oc2ccc(NC(=O)C3CCCCC3)cc2C1=O	14.8	3.0[16.7 µM]
C[C@H]1CN([C@@H](C)CO)S(=O)(=O)c2ccc(-c3ccccc3)cc2O[C@@H]1CN(C)S(=O)(=O)c1ccccc1F	-17.3	13.4[16.7 µM]
O=C(N[C@H]1CC[C@H](CC(=O)N2CCCCC2)O[C@H]1CO)c1ccc2c(c1)OCO2	-7.9	-5.9[16.7 µM]
COCCOC(=O)N1C(=O)[C@@]2(c3cc(C#Cc4ccc(OC)cc4)ccc31)[C@H](C(=O)NC[C@H](O)c1ccccc1)[C@H]1C(=O)O[C@H](c3ccccc3)[C@H](c3ccccc3)N1[C@@H]2c1ccc(O)cc1	-7.0	-23.4[16.7 µM]
CCC(=O)N[C@@H]1C=C[C@H](CC(=O)NCc2ccccc2OC)O[C@@H]1CO	-7.5	6.8[16.7 µM]
CN(C)CC(=O)N[C@@H]1C=C[C@H](CC(=O)NCCN2CCCCC2)O[C@@H]1CO	-8.8	-4.0[16.7 µM]
COCC(=O)N1[C@H](CO)[C@@H](c2ccc(-c3cccc(F)c3)cc2)[C@@H]1C#N	-5.7	5.0[16.7 µM]
CCC(=O)N(C)C[C@@H]1Oc2cc(Br)ccc2S(=O)(=O)N([C@@H](C)CO)C[C@H]1C	10.7	-7.8[16.7 µM]
C[C@H](CO)N1C[C@H](C)[C@H](CN(C)C)Oc2ncc(-c3cccc(C(F)(F)F)c3)cc2C1=O	0.0	4.7[16.7 µM]

Bioassay records from PubChem BioAssay.
